Compound activity as filed in PubChem.
RGS16-Gao = RGS16-Galphao interaction regulator (human); O15492+P09471; bead-based flow cytometry RGS16-Galphao binding, fluorescence; actives lie on both sides; binding response (% of control), % at 10 µM; 0.38% of 220,000 active; AID 1441;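 active = below 25% or above 175%, edge rows of some plates excepted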;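 also: Galphao activated by GDP with aluminum fluoride before binding; 100% = wells without compound and 0% = beads without RGS; some results beyond the cut were filed as inactive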
Target sequence (O15492 whole entry, looked up): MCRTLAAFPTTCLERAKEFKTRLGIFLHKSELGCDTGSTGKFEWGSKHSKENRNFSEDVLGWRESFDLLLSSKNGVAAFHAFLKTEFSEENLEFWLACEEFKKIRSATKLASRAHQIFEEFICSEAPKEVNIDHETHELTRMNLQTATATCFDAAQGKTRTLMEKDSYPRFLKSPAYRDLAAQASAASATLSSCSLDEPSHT
Target sequence (P09471 whole entry, looked up): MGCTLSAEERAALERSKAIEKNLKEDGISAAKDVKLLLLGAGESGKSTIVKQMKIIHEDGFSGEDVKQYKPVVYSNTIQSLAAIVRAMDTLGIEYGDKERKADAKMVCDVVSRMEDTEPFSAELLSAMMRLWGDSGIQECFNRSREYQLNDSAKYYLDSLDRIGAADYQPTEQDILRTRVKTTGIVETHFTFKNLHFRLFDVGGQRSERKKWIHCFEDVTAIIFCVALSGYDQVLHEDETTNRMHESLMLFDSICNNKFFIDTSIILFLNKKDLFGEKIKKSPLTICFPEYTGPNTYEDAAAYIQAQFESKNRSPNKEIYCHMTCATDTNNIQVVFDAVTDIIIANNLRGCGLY
INS promoter inh = TRM-6 insulin promoter activity inhibition. TRM-6 cells (human fetal islet line), insulin promoter-eGFP reporter, imaging; reporter expression induced with tamoxifen. 0.9% of 130,000 active. inhibition, % at 2 µM. AID 1273;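 active = inhibition above the mean plus 3 SD, with well images judged a real hit on visual review, cut at about 60% in these data, passing the limit was not always enough; inconclusive = inhibition over the cutoff but images rejected on review; inactive = inhibition not above the cutoff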
GALR2 ag = activates the human galanin receptor 2. O43603. GALR2-expressing cells, agonist activation read-out. activation, %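 (tested at 5 µM)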. 0.48% of 140,000 active;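 active = above mean plus 3 SD of all compounds, about 5% in these data, not always enough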;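 also: 0% = vehicle buffer wells and 100% = reference agonist at full effect; tested in CHO reporter cells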
Target sequence (O43603 whole entry, looked up): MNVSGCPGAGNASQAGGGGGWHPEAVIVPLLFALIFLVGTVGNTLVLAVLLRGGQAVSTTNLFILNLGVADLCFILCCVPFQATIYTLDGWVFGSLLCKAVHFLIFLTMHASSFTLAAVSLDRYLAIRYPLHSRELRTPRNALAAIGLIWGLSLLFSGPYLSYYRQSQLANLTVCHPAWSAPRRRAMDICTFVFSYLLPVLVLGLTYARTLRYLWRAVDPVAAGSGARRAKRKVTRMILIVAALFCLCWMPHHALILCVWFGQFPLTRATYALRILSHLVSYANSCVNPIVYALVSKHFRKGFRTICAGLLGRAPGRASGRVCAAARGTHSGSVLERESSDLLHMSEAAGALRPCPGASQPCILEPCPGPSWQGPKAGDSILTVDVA
PKD1 kinase inh = blocks activity of human protein kinase D1 | 0.056% of 200,000 active | PKD1 kinase fluorescence polarization assay | Q15139 | inhibition, %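 (about 10 µM by stock and volumes)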 | AID 797;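 active = inhibition of 50% or more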;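 also: controls were vehicle for no effect and a reference inhibitor for full effect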
HSV augment = increases HSV replication in cells | maximum fold increase | 0.005% of 220,000 active | HSV replication augmentation in cells, fold increase;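 active = peak rise of 1.5-fold or more in the series; inconclusive = self-fluorescent or not available for retest; tested in PC3 cells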;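 also: first round at 10 µM; read as green reporter fluorescence; hits show the peak of a series up to 25 µM; 1 = signal of infected wells without compound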
INS promoter inh cell count = recorded beside INS promoter inh, whose call it bears; normalized cell count, %; measured here: cell count, toxicity; reference of the scale not given here;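 cells exposed to compound for 48 h; stained nuclei by imaging scaled within each plate; lower means fewer cells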
HSV augment primary fold = second read-out of HSV augment, no call of its own (marks repeat the call); fold increase; compound at 10 µM; measured here: primary screen fold increase 10 uM; tested in PC3 cells;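 GFP signal in the first replicate; 1 = infected wells without compound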
* marks the source's active call; other numbers are inactive results; i = inactive; u = inconclusive; x = no result given.

SMILES	RGS16-Gao	INS promoter inh	INS promoter inh cell count	GALR2 ag	PKD1 kinase inh	HSV augment	HSV augment primary fold
O=C(Nc1cccc(S(=O)(=O)N2CCCC2)c1)c1ccc2ccccc2n1	99	x	x	x	1	i	0.9
CC(C)N(c1ccccc1)c1ccc(NC(=S)NCCN(C)C)cc1	103	x	x	x	-2	i	0.79
CCOC(=O)c1oc2c(O)c(O)ccc2c(=O)c1-c1nncn1-c1ccccc1	97	-12	133	1.2	8	i	0.96
O=C(Nc1ccccn1)c1cccc(S(=O)(=O)N2CCOCC2)c1	103	-40	60	-0.5	7	i	0.83
O=C(c1cccnc1)c1cccnc1	106	-12	77	-2.2	-2	i	0.8
COc1ccc([N+](=O)[O-])cc1N(CC(=O)N1CCCCC1)S(C)(=O)=O	93	x	x	x	-1	i	1.2
CN(CCN1CCOCC1)Cc1nc(-c2cccs2)no1	100	x	x	x	0	i	0.95
CCCc1cc(=O)oc2cc(OCC(=O)Nc3ccc4c(c3)OCCO4)ccc12	100	-29	69	-0.5	-13	i	1
CCCCC(CC)C(=O)Nc1ccc(Cl)cn1 (configuration not stated)	103	29	64	-2.5	8	i	0.92
CC(C)(C)C(=O)COC(=O)c1cc(-c2ccncc2)nc2ccccc12	101	x	x	x	-4	i	0.92
COc1ccccc1CNC(=O)C1(C)Oc2cccnc2NC1=O (configuration not stated)	93	15	92	x	-1	i	1
Cc1ccc(NC(=O)Cn2cccc2)cc1Cl	113	-121	44	-0.2	-3	i	0.96
Cc1cc(N2CCN(C(=O)c3ccco3)CC2)n2ncc(-c3ccccc3)c2n1	104	x	x	-1.0	0	i	0.9
CN1/C(=C/C=N/NC(=O)c2ccc([N+](=O)[O-])cc2)C(C)(C)c2ccccc21	116	25	63	-0.7	15	i	1.3
Cc1sc2nc(CSCC(=O)N(CCC#N)c3ccccc3)[nH]c(=O)c2c1C	98	-107	146	x	-9	i	0.91
S=C(NC1CCCC1)N1CCN(c2cccc(Cl)c2)CC1	100	x	x	x	-3	i	0.82
O=C(CCn1c(=S)oc2ccccc21)NC1CCCCC1	100	x	x	x	x	i	0.95
COc1cc2c(cc1OC)/C(=C/C#N)NC(C)(C)C2	105	-37	121	-0.2	2	i	0.93
Cc1ccc(C)c(NS(=O)(=O)c2cc(C(N)=O)ccc2C)c1	214	32	94	-3.8	-10	i	1.1
N#Cc1cccc(NC(=O)Nc2cccs2)c1	102	55	111	-2.4	2	i	1
O=C(CCCOc1ccccc1)Nc1cccnc1	100	0	104	-0.3	-2	i	0.82
Cc1ccccc1N1CCN(Cc2cccc(C(=O)O)c2)CC1	105	29	115	-0.8	-4	i	0.77
CC1(N(O)/C=C2\C=CC=CC2=O)CCCCC1=O (configuration not stated)	100	x	x	x	x	i	0.98
CCc1nnc(NC(=O)CSc2nnc(C)n2CC2CCCO2)s1 (configuration not stated)	100	x	x	-1.8	-10	i	0.84
FC(F)(F)COc1nc(N2CCOCC2)nc(N(c2ccccc2)c2ccccc2)n1	119	-38	99	0.5	-3	i	1
O=S(=O)(NCC1CCCO1)c1cc(Cl)ccc1Cl (configuration not stated)	101	-43	105	-1.0	6	i	0.83
Cc1ccc(Oc2ccc(Cl)cc2NC(=O)c2cnccn2)cc1	100	8	80	-2.8	3	i	0.85
COc1cccc(C(=O)c2c[nH]c(C(=O)NCc3ccco3)c2)c1	105	7	156	-3.0	-3	i	0.94
CCN(CC)C(=O)CN(c1cccc(C(F)(F)F)c1)S(C)(=O)=O	108	-17	98	-1.6	-4	i	0.94
Cc1ccc(COCC(CC(C)C)N2CCN(C(=O)c3cccc(C(F)(F)F)c3)CCC2=O)cc1 (configuration not stated)	107	-70	90	8.9*	-9	i	0.92
Cn1cnc2cc(NS(=O)(=O)c3ccc(Br)cc3)ccc21	101	3	67	0.0	-10	i	0.97
Cc1cc(NC(=O)CCc2ccccc2)c([N+](=O)[O-])cc1C	47	-41	89	0.5	-15	i	0.93
COc1ccccc1C(=O)N/C(=N/c1nc(C)cc(C)n1)Nc1ccccc1	95	x	x	x	x	i	0.82
O=C(C1=NN[C@@H]2C(=O)N(c3cccc(F)c3)C(=O)[C@H]12)C(c1ccccc1)c1ccccc1	96	x	x	0.4	5	i	0.93
CCOC(=O)C(C)Sc1ncc(-c2ccccc2)cn1 (configuration not stated)	103	0	129	x	-3	i	0.87
COc1cc(-c2nnc(SCC(=O)Nc3cc(C)on3)n2C)cc(OC)c1O	99	-19	77	-3.0	0	i	0.89
Cc1cccc2cc(CN(C(=O)c3cccs3)c3ccccc3)c(=O)[nH]c12	106	x	x	-1.3	-14	i	1.1
CCCN(CCC)S(=O)(=O)c1ccc(C(=O)NCc2ccc3c(c2)OCO3)cc1	100	x	x	-2.6	-16	i	0.93
O=C(NNC(=S)Nc1ccccc1C(F)(F)F)c1ccc(Br)o1	90	x	x	x	2	i	1.1
CCCCN(CC)C(=O)C1CCC(=O)N(c2ccc(OC)cc2)C1c1ccc(OC)c(OC)c1 (configuration not stated)	x	x	x	-0.7	-15	x	x

Structural class: the entries above containing bromine
SMILES	RGS16-Gao	INS promoter inh	INS promoter inh cell count	GALR2 ag	PKD1 kinase inh	HSV augment	HSV augment primary fold
Cn1cnc2cc(NS(=O)(=O)c3ccc(Br)cc3)ccc21	101	3	67	0.0	-10	i	0.97
O=C(NNC(=S)Nc1ccccc1C(F)(F)F)c1ccc(Br)o1	90	x	x	x	2	i	1.1

Going on with the list.
SMILES	RGS16-Gao	INS promoter inh	INS promoter inh cell count	GALR2 ag	PKD1 kinase inh	HSV augment	HSV augment primary fold
CC(C)CNS(=O)(=O)c1cc(C(=O)OCC(=O)c2ccc3c(c2)OCCO3)c(Cl)cc1Cl	107	7	118	-0.4	0	i	0.99
Cc1ccc(SCc2cn3cccnc3n2)cc1	93	23	154	-0.7	-5	i	0.9
O=C(CSc1nc(-c2ccccc2)cc(=O)[nH]1)Nc1ccccn1	99	-60	56	-1.5	2	i	0.96
CC(C)(Nc1ccccc1)C(=O)c1ccccc1	113	30	103	-0.1	-5	i	0.9
CCN(CC)S(=O)(=O)c1csc(C(=O)NC2CCCCC2)c1	108	x	x	0.5	-1	i	0.77
C=CCNC(=S)NNC(=O)c1ccc(OCC)cc1	107	-5	105	-0.5	-6	x	x
CCOC(=O)c1cnc(-n2nc(C)cc2C)nc1Nc1ccc(N(C)C)cc1	106	6	50	-0.3	-1	i	0.95
CN1c2ccsc2C(=O)/C(=C\Nc2cccc(C(F)(F)F)c2)S1(=O)=O	103	x	x	x	x	i	1
COc1ccc(CSc2nncn2N)cc1[N+](=O)[O-]	109	52	102	-0.1	-8	i	0.85
CCOc1ccc(S(=O)(=O)n2ccnc2)c2ccccc12	101	x	x	x	-14	i	0.97
Cc1cccc(NC(=O)CN(C)S(=O)(=O)c2ccc(Cl)cc2)n1	103	-26	97	-1.1	-15	i	0.82
CCCOc1ccc(C2C(C#N)=C(N)Oc3nc[nH]c(=O)c32)cc1OC (configuration not stated)	98	31	184	-0.1	-13	i	0.94
CCOC(=O)c1ccc(NC(=O)NC2CCN(CC(=O)NCc3ccc4c(c3)OCO4)CC2)cc1	104	x	x	-2.2	7	i	0.81
Cc1ccnc2c(N3C(=O)C4C5c6ccccc6C(c6ccccc65)C4C3=O)cccc12 (configuration not stated)	77	x	x	-1.8	-9	i	0.7
O=C(NCc1ccco1)C1CCN(Cc2ccc(F)cc2)CC1	106	21	128	-1.1	1	i	0.87
NC(=O)C1CCN(c2ccnc3cc(Cl)ccc23)CC1	102	x	x	x	-11	i	0.99
CCCCCCCC(O)CC(CC1CCCCC1)C(=O)NN (configuration not stated)	55	x	x	-1.0	1	i	1.1
O=C(c1cc2ccccc2oc1=O)N(c1ccccc1)C1C=CS(=O)(=O)C1 (configuration not stated)	146	0	94	-2.1	2	i	0.97
CCNS(=O)(=O)c1ccc(NC(=O)c2cncc(Br)c2)cc1	105	12	150	-1.4	-4	i	0.9
C(=N\Nc1nc2ccccc2s1)/c1ccc2c(c1)OCO2	110	x	x	-0.9	-5	i	0.93
COc1ccc(CCN=C(N)NS(=O)(=O)c2ccc(C)c(C)c2)cc1	101	-27	90	x	-6	i	0.99
CC1S/C(=N/N=C/c2cccc([N+](=O)[O-])c2)NC1=O (configuration not stated)	98	x	x	x	x	i	0.95
NC(=O)c1ccc(NC(=O)c2cccc(Oc3ccccc3)c2)cc1	92	20	130	x	4	i	0.96
CN(C)c1ccc(NC(N)=S)cc1	121	-8	71	-0.8	-7	i	0.9
CC(C)c1ccc(NC(=S)N2CCN(Cc3ccccc3)CC2)cc1	113	x	x	x	1	i	1
CCOc1ccc(N2CCc3c(C)nc(SC)nc32)cc1	100	x	x	x	-11	i	0.78
COc1ccc(C(C(=O)NC(C)(C)C)N(Cc2ccc(C)cc2)C(=O)CCC(=O)Nc2cc(C)on2)cc1 (configuration not stated)	99	x	x	x	0	i	1
O=C(O)CC(NC(=S)NCc1ccccc1)C(=O)O (configuration not stated)	100	3	112	-0.7	1	i	1.1
Cc1cccc(C2(c3cccc(C)c3)OC(=O)c3ccccc32)c1	98	-17	60	0.1	-1	i	0.93
Cc1cccc(N(C(=O)c2cnc3n(c2=O)CCS3)C2CCCCC2)c1	45	-227	57	-0.7	3	i	1
CCC(Oc1ccccc1)C(=O)NCc1cccnc1 (configuration not stated)	95	-33	61	-1.4	-10	i	0.99
O=C(CCCN1C(=O)c2cccc3cccc(c23)C1=O)Nc1nccs1	101	x	x	x	x	i	0.91
CC(=O)Nc1nc(CC(C)C)cc(-c2ccccc2)c1C#N	105	x	x	x	x	i	1.1
Cn1c(N)c(C(=O)COC(=O)CC(NC(=O)c2ccccc2Cl)c2ccccc2)c(=O)n(C)c1=O (configuration not stated)	101	-56	108	x	-5	i	0.92
Cc1ccc(C)c(OC(=O)c2ccncc2)c1	118	48	113	-3.6	-3	i	1
CSc1nc2cc(C)nn2c(-c2ccccc2)c1C#N	95	x	x	x	x	i	1.1
O=c1c2cc(-c3ccccc3)sc2nc2n1CCC2	96	x	x	x	-5	i	0.9
C=CCN1C=C2C(=O)C(C)(OC(=O)CC)C(=O)C=C2C=C1CCCC (configuration not stated)	100	x	x	x	x	i	0.8
O=C(NNC1OC(CO)C(O)C(O)C1O)c1cccc(Br)c1 (configuration not stated)	101	0	82	x	-2	i	0.84
COc1ccccc1C1C=C(c2ccc(Cl)cc2)Nc2nc(NS(C)(=O)=O)nn21 (configuration not stated)	99	44	76	-0.5	-10	u	x
O=C(Nc1ccc2c(c1)OCO2)N1CCN(c2cccc(C(F)(F)F)c2)CC1	-243	-291	100	-1.1	-2	i	0.95

In the list so far, 10 have a Cl atom:
SMILES	RGS16-Gao	INS promoter inh	INS promoter inh cell count	GALR2 ag	PKD1 kinase inh	HSV augment	HSV augment primary fold
CCCCC(CC)C(=O)Nc1ccc(Cl)cn1 (configuration not stated)	103	29	64	-2.5	8	i	0.92
Cc1ccc(NC(=O)Cn2cccc2)cc1Cl	113	-121	44	-0.2	-3	i	0.96
S=C(NC1CCCC1)N1CCN(c2cccc(Cl)c2)CC1	100	x	x	x	-3	i	0.82
O=S(=O)(NCC1CCCO1)c1cc(Cl)ccc1Cl (configuration not stated)	101	-43	105	-1.0	6	i	0.83
Cc1ccc(Oc2ccc(Cl)cc2NC(=O)c2cnccn2)cc1	100	8	80	-2.8	3	i	0.85
CC(C)CNS(=O)(=O)c1cc(C(=O)OCC(=O)c2ccc3c(c2)OCCO3)c(Cl)cc1Cl	107	7	118	-0.4	0	i	0.99
Cc1cccc(NC(=O)CN(C)S(=O)(=O)c2ccc(Cl)cc2)n1	103	-26	97	-1.1	-15	i	0.82
NC(=O)C1CCN(c2ccnc3cc(Cl)ccc23)CC1	102	x	x	x	-11	i	0.99
Cn1c(N)c(C(=O)COC(=O)CC(NC(=O)c2ccccc2Cl)c2ccccc2)c(=O)n(C)c1=O (configuration not stated)	101	-56	108	x	-5	i	0.92
COc1ccccc1C1C=C(c2ccc(Cl)cc2)Nc2nc(NS(C)(=O)=O)nn21 (configuration not stated)	99	44	76	-0.5	-10	u	x
